Source: PubChem BioAssay
MenB inh = blocks the Mycobacterium tuberculosis MenB enzyme; MenB enzyme assay, absorbance read-out; some hits fall short of the stated cut; inhibition, %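 (about 12 µg/mL by stock and volumes)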; actives 0.43% (n = 100,000); P9WNP5; AID 540299;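 active = mean of two replicates above 30%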;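 note: 0% = no compound and 100% = wells with inactive enzyme; the first replicate is given; strong numbers were not always called active; inactives centre near -10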
Target sequence (P9WNP5 whole entry, looked up): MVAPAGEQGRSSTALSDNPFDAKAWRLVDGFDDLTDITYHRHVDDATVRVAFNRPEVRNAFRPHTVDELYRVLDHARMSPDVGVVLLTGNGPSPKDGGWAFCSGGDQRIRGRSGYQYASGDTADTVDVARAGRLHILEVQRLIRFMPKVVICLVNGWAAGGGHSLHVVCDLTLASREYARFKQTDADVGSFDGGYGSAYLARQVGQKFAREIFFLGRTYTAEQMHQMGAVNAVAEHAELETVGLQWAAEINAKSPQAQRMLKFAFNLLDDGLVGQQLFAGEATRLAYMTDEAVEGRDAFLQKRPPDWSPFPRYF
MbtI inh = blocks the Mycobacterium tuberculosis siderophore enzyme MbtI. inhibition, %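 (about 17 µg/mL by stock and volumes)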. purified MbtI enzyme, fluorescence intensity read-out. P9WFX0. actives 0.89% (n = 100,000);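 active = above 50% in both replicates, above 80% if mildly self-fluorescent; inactive = the rest, strongly fluorescent compounds included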;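 note: 0% = mean of negative and 100% = mean of positive controls; one replicate is shown; some compounds called inactive have numbers as strong as hits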
Target sequence (P9WFX0 whole entry, looked up): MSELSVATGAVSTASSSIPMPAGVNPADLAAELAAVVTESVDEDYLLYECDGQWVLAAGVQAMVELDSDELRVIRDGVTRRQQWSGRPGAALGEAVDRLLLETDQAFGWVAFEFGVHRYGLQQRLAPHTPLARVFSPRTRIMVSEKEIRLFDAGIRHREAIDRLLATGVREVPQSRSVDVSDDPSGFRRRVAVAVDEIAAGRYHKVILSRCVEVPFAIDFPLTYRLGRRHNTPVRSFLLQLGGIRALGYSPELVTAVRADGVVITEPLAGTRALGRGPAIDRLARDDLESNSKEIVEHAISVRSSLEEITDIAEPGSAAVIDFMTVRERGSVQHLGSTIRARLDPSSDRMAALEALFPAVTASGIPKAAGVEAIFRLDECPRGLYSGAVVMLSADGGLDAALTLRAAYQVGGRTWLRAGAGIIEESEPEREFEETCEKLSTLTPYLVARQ
PV pol inh = poliovirus RNA polymerase inhibition. poliovirus polymerase elongation, fluorescence polarization; hits give low values. % elongation, % (compound at 16.7 µg/mL). actives 0.66% (n = 150,000). AID 588519; in the data active = % elongation below about 90%; note: some results filed as inactive read as strong as hits
PV pol inh intensity = recorded beside PV pol inh, whose call it bears; % elongation; measured here: total intensity read-out; formula for this scale not given here;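 total fluorescence in place of polarization; lower means less elongation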
Numbers without * were called inactive; . = no result given. Outcome played no part in choosing rows; overall some 1.8% were active at least once.

No.	structure	MbtI inh	MenB inh	PV pol inh	PV pol inh intensity
1	CC1CCCCN1C(C(=O)O)c1ccccc1 (configuration not stated)	.	6	102	107
2	O=C(Nc1nc(SCc2ccc(Cl)cc2)n[nH]1)C1=NN(C2CCS(=O)(=O)C2)C(=O)CC1 (configuration not stated)	16	-48	103	109
3	Cc1ccccc1Cn1cc(NC(=O)c2cc(CC(C)C)on2)cn1	10	-47	103	104
4	O=C(CNC(=O)C1CCCCC1)NC1CCCCC1	-4	.	99	102
5	O=C(O)/C=C/C(=O)c1ccccc1	-8	-40	98	103
6	Cc1[nH]c(=O)[nH]c(=O)c1/C=N/NC(=S)NCc1ccc(OC(C)C)cc1	-10	-66	98	103
7	O=C(CSc1nccc(=O)[nH]1)N1N=C2/C(=C/c3ccco3)CCCC2C1c1ccco1 (configuration not stated)	7	-11	106	107
8	CCCn1c(=O)n(C)c(=O)c2c(SC(C(=O)NC(=O)NC)c3ccccc3)nc(CC(C)C)nc21 (configuration not stated)	-2	-19	103	106
9	COC(=O)c1noc(C)c1C(=O)/C=C/N1CCCCC1	3	-15	107	107
10	Cc1cc(C(F)(F)F)[nH]c(=O)c1C#N	.	-12	101	104
11	CCOc1ccc(C(=O)OC(C)C(=O)NC2CC2)cc1OCC (configuration not stated)	7	3	102	107
12	CC(=O)NCc1ccc(C(=O)CSc2ncnc3sc(C)c(C)c23)o1	69	-17	105	104
13	O=S(=O)(/C=C/c1ccccc1)Nc1ccc2cn[nH]c2c1	7	3	96	102
14	O=C(Nc1ccccc1)C1CCN(C(=O)c2cccc(-n3cccc3)c2)CC1	-3	-32	96	107
15	O=c1c2ccccc2[nH]c(=S)n1CCS	-4	-42	102	105
16	CC(C)N=C(N)/N=C(\N)Nc1ccc(Cl)cc1	-16	0	99	99
17	Cc1ccc2c(CC(=O)Nc3ccccc3)coc2c1	0	-5	104	105
18	NC(=O)C1CCN(Cc2cc(=O)oc3cc4c(cc23)CCC4)CC1	-4	14	103	106
19	COc1ccc(C=C(C#N)C#N)c2ccccc12	-5	-40	103	103
20	CCCCC/C=C\C=C\[C@H](O)CCCCCCCC(=O)O	-18	.	102	103
21	O=C(Nc1cccc2c1CCCC2)c1cc(C2CC2)[nH]n1	-5	-31	104	99
22	O=C1CCCCC1Sc1nnc(Cc2cccs2)n1CCc1ccccc1 (configuration not stated)	2	-12	107	112
23	COC(=O)c1ccc(COC(=O)c2cc(OC)c(OC)cc2NC(=O)c2ccco2)cc1	3	-29	98	101
24	O=C(NC(C(=O)c1ccccc1)N1CCCCC1)c1ccccc1 (configuration not stated)	-1	-85	104	104
25	CN1C(=O)C(O)(C2COC(C)(C)CC2=O)c2cc(Br)ccc21 (configuration not stated)	6	-1	101	104
26	COc1ccccc1CC(=O)n1cccn1	4	-8	102	102
27	CN(C)C(=O)CN1CCN(C(=O)Nc2ccc(Cl)c(Cl)c2)CC1	-8	-6	.	.
28	COC(=O)Nc1ccc(S(=O)(=O)n2cnc3ccccc32)cc1	-27	11	105	110
29	COc1ccc(NC(=O)CCCN2C(=O)C3C4C=CC(C4)C3C2=O)c(OC)c1 (configuration not stated)	8	5	100	100
30	CN(C)C(=O)C[n+]1ccc(C(N)=O)cc1	-1	6	99	104

Looked up above:
entry 10 in MenB inh is entered as -12
entry 1 in MenB inh is entered as 6
entry 11 in PV pol inh is entered as 102
entry 26 in PV pol inh is entered as 102
entry 19 in MbtI inh is entered as -5

(list continues)
No.	structure	MbtI inh	MenB inh	PV pol inh	PV pol inh intensity
31	c1ccc(-c2nc3ccccc3nc2N2CCCC2)cc1	-2	-45	103	94
32	COc1ccccc1C(=O)OCC(=O)c1ccccc1F	9	.	102	96
33	COCC(C)NC(=O)C1CC(=O)N(c2ccccc2)C1 (configuration not stated)	-12	6	101	102
34	CCCc1c(C)nc2c(OC)cccc2c1SCC(=O)O	.	2	104	103
35	N#CCCn1nc(Nc2ccccc2)n(-c2ccccc2)c1=S	1	5	99	102
36	NCCCc1ccco1	12	-46	102	105
37	O=C(c1cccc(S(=O)(=O)N2CCOCC2)c1)n1nnc2ccccc21	3	-8	94	99
38	O=C(Cc1ccccc1)CC1(O)C(=O)Nc2ccccc21 (configuration not stated)	6	-11	100	101
39	CCOC(=O)c1c(CN2CCOCC2)oc2ccc(OC)cc12	.	-1	97	101
40	COc1ccc(-n2c(N)c(-c3nc4ccccc4n3C)sc2=S)cc1	0	-22	102	105
41	O=C(CN1C(=O)CCC1=O)Nc1ccc(Cl)cc1	15	11	107	103
42	O=C(Nc1cccc(-c2cn3ccccc3n2)c1)c1cccc(Cl)c1	21	-12	101	103
43	Cc1nc2ccccc2c(=O)n1/N=C/c1ccc(N2CCOCC2)cc1	-18	4	105	112
44	Cc1cc(Nc2ccccc2)n(-c2ccccc2C(=O)O)n1	0	.	102	101
45	Cc1ccc(CN(C)C(=O)c2ccc(C#N)cc2)o1	12	-13	101	112
46	Cc1cccc(N2C(=O)C3C(C4=C(O)c5ccccc5C4=O)=NC(c4ccccn4)C3C2=O)c1 (configuration not stated)	2	-5	104	107
47	O=C(COc1ccc(S(=O)(=O)NCc2ccccc2)cc1Cl)N1CCOCC1	-6	-18	103	102
48	Oc1ccc2ccccc2c1CN1CCc2ccccc2C1	4	-5	103	106
49	CCN1C(=O)c2cccc3c(NC(=O)c4cccc(N5C(=O)CCC5=O)c4)ccc1c23	6	-14	101	103
50	CCCNC(=O)c1c(C)[nH]c(C(=O)OCC)c1C	-7	-14	101	104
51	CC(C)CN(CC(C)C)S(=O)(=O)Cc1ccccc1	7	2	101	105
52	N#Cc1cc(O)c(-n2nnc3ccccc32)cc1C#N	0	-11	106	101
53	Cc1ccc(NC(=O)CSc2nnc(N3C(=O)c4ccccc4C3=O)s2)c(C)c1	22	8	101	99
54	Cc1nn(-c2ccccc2)c(C)c1/C=C1\CCCC2=C1OC(N)=C(C#N)C2c1c(C)nn(-c2ccccc2)c1C (configuration not stated)	0	-38	112	120
55	CCCN1CCC(NCC(C)c2ccccc2)CC1 (configuration not stated)	-7	6	99	106
56	Cc1cc(C(F)(F)F)c2c(-c3ccccc3)nn(-c3ccccc3)c2n1	47	-19	101	98
57	O=C(NCc1ccco1)NCC(F)(F)F	-10	-15	103	103
58	CC(=O)Nc1ccccc1OCC(=O)NC(=O)Nc1ccc(C)cc1C	-1	1	105	105
59	Cc1ncc(CO)c2cc(C(N)=O)c(=Nc3ccc(C(N)=O)cc3)oc12	8	-51	101	93
60	N#C/C=C(\Nc1ccc(Br)cc1)c1ccccc1	4	.	105	106
61	CC12CC=C3c4ccc(O)cc4CCC3C1CCC2O (configuration not stated)	-7	-2	103	106
62	S=C(N/N=C/c1cccnc1)NC1CCCCC1	-2	-13	104	109
63	C/C(=C\c1ccccc1)CN(C)C1CCN(C)CC1	-6	0	99	101
64	NC(=O)NC(Cc1ccccc1)C(=O)N1CCN(S(=O)(=O)c2ccc(Cl)cc2)CC1 (configuration not stated)	-13	-13	107	109
65	CCC1(C)Cc2ccccc2-c2nc3n(c(=O)c21)CC(C(=O)O)S3 (configuration not stated)	117	-8	101	101
66	Cc1ccc(CNC(=O)c2cc3oc4ccccc4c3n2C)cc1	101	-32	103	102
67	CC1CCN(C(C(=O)O)c2ccccc2)CC1 (configuration not stated)	-6	-45	103	99
68	O=C(O)CNc1ccc2nncn2n1	-1	-64	105	99
69	O=C1C(=O)N2c3ccccc3OC(=O)C2(O)/C1=C(\O)c1ccccc1 (configuration not stated)	.	-4	96	94
70	CCOC(=O)N1CCC(N/C=C(\C#N)S(=O)(=O)C(C)C)CC1	-11	5	109	112
71	CN(Cc1ccccc1)Cn1ncn(C)c1=S	-4	14	105	108
72	COC(=O)c1cc(-c2ccccc2)oc1CN	-1	-21	102	102
73	Cc1ccc(S(=O)(=O)N(C)CC(=O)NN)cc1	-3	-13	106	111
74	C=C(C)Cn1c(=S)[nH]c2c(c1=O)C(C)(C)Cc1ccccc1-2	0	-1	103	102
75	Cc1nc(Oc2ccc3c(C)cc(=O)oc3c2)c2c3c(sc2n1)CCC3	0	-18	103	105
76	CNC(=S)N(Cc1ccc(OC)cc1OC)c1ccc(I)cc1	.	-34	103	103
77	CCC1CCc2c(sc(NC(=O)CN3CCC4(CC3)OCCO4)c2C#N)C1 (configuration not stated)	4	-6	103	104
78	c1ccc(-c2nnc(-c3ccc4c(c3)OCO4)nc2-c2ccccc2)cc1	-12	4	105	109
79	O=C(NCc1cccnc1)c1cc(-c2cccc(Br)c2)nc2ccccc12	10	-20	104	102
80	CC(=O)NC1C(=O)N(C(C)C)c2ccccc21 (configuration not stated)	1	31	101	101
81	C/C(=N\N)c1c(-c2ccccc2)c2cc(Cl)ccc2[nH]c1=O	13	-20	96	101
82	O=C(NC(C(=O)N1CCOCC1)C12CC3CC(CC(C3)C1)C2)C1CCCCC1 (configuration not stated)	-13	-22	103	102
83	Cc1ccc2c(c1)C1CN(C)CCC1N2C(=O)/C=C/c1ccccc1 (configuration not stated)	0	.	99	97
84	Cn1c(C(O)C(F)(F)F)nc2ccccc21 (configuration not stated)	1	-23	98	101
85	CCOc1cc(C(=O)CCC(=O)O)ccc1O	9	-39	101	102
86	Nc1nonc1/C(=N/OC(=O)c1ccccc1)N1CCOCC1	-14	-49	106	100
87	CCCNS(=O)(=O)c1cc2c(cc1C)N(C)CCO2	-17	-3	103	97
88	O=C(CSc1nnc(-c2ccccc2)n1-c1ccccc1)NC(=O)CN1CCCC1=O	-6	5	100	109
89	COC(=O)C1=C(C)N(c2ccc(C)cc2)C(=O)/C1=C\c1ccc2c(c1)OCO2	4	-1	104	102
90	CCOC(=O)c1oc2ccc(Cl)cc2c1NC(=O)CCCN1C(=O)c2ccccc2C1=O	.	-20	101	101

Four compounds drawn at random from the list so far:
No.	structure	MbtI inh	MenB inh	PV pol inh	PV pol inh intensity
71	CN(Cc1ccccc1)Cn1ncn(C)c1=S	-4	14	105	108
74	C=C(C)Cn1c(=S)[nH]c2c(c1=O)C(C)(C)Cc1ccccc1-2	0	-1	103	102
75	Cc1nc(Oc2ccc3c(C)cc(=O)oc3c2)c2c3c(sc2n1)CCC3	0	-18	103	105
69	O=C1C(=O)N2c3ccccc3OC(=O)C2(O)/C1=C(\O)c1ccccc1 (configuration not stated)	.	-4	96	94

Values in list order from above:
Entries 40 to 51 in MbtI inh: 0, 15, 21, -18, 0, 12, 2, -6, 4, 6, -7, 7
Entries 40 to 51 in MenB inh: -22, 11, -12, 4, ., -13, -5, -18, -5, -14, -14, 2

(cont.)
No.	structure	MbtI inh	MenB inh	PV pol inh	PV pol inh intensity
91	O=c1[nH]c(NN=C2CCCCC2)nc2sc3c(c12)CCCC3	3	-22	100	104
92	COC(=O)CC1=NN(c2ccccc2)C(=O)C1	.	-97	112	112
93	CCn1c2c(c3cc(F)ccc31)CCCC2=O	12	-10	100	102
94	CCOC(=O)Cn1c(=O)oc2cc(S(=O)(=O)Nc3cc(C)ccc3OC)ccc21	-1	9	101	98
95	CN(C)/C=N/c1c(C#N)cnn1-c1ncnc2sc3c(c12)CCC3	2	7	100	105
96	C=CCN(C(=O)CSc1nc2[nH]ncc2c(=O)n1-c1cccc2ccccc12)c1ccccc1	-17	-18	103	99
97	CCc1ccc2[nH]c(=O)c(C(c3nnnn3C(C)(C)C)N3CCc4ccccc4C3)cc2c1 (configuration not stated)	.	-10	103	113
98	CN(C)S(=O)(=O)c1cccc(CSc2nnc(-c3ccccc3Cl)n2C)c1	-2	-7	101	97
99	CCOC(=O)Cn1c(=O)oc2cc(S(=O)(=O)N(CC)c3ccc(C)c(C)c3)ccc21	-2	10	101	110
100	NC(=S)Cc1nnc2n1CCCCC2	15	-27	95	98
101	CC12CCCCC1=NC(c1ccccc1O)N2O (configuration not stated)	.	4	105	112
102	COc1ccc2c(CC(=O)N3CCCSc4ccccc43)coc2c1	-12	-40	105	103
103	O=C(Cc1nc2ccccc2[nH]1)c1cccs1	5	.	22*	39*
104	Cc1cc(O)cc(C)c1Cl	-18	0	99	101

Sorted by formula weight (lowest first): part of the list above
No.	structure	MbtI inh	MenB inh	PV pol inh	PV pol inh intensity
100	NC(=S)Cc1nnc2n1CCCCC2	15	-27	95	98
95	CN(C)/C=N/c1c(C#N)cnn1-c1ncnc2sc3c(c12)CCC3	2	7	100	105
99	CCOC(=O)Cn1c(=O)oc2cc(S(=O)(=O)N(CC)c3ccc(C)c(C)c3)ccc21	-2	10	101	110
